Source: PubChem BioAssay
NS1 function inh – inhibitors of influenza NS1 protein function. AID 2326. S. cerevisiae slowed by influenza A NS1, growth recovery by OD600. Potency, µM (doses to about 46.1 µM), for the others: at the highest dose activity, positive = more growth. 270,000 compounds, 0.4% hits; also: actives are rising curves; nearly all actives have a fitted effect of over 50% in size
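Compounds were scored for reversing the slow growth caused by influenza A NS1 in S. cerevisiae, measured by optical density at 600 nm. Assay medium contained 2% galactose at pH 6.0; NS1-free yeast of the same strain were the positive control.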
2A StopGo – lowers the luciferase signal of an FMDV 2A StopGo reporter; Potency, µM (titrated, usually from 57.9 µM), inactives show at the highest dose signal change, negative = less light; human cells with a luciferase reporter of 2A StopGo recoding; control for the full effect not named in the record; AID 1159524; 410,000 compounds, 1.2% hits; active = well fitted falling curve with a large enough effect; inconclusive = small, poorly fitted or top-dose-only effect; inactive = no such curve, though single readings can be large or run the other way; tested in HEK293T cells; also: % is scaled to controls: 0 for no effect and ±100 for the full control effect; nearly all actives have a fitted effect of over 45% in size; luciferase light after 4 h
Marburg entry inh – Marburg virus entry inhibition. Marburg virus pseudotyped entry inhibition, cell reporter; control for the full effect not named in the record; about a third of the inactives were read at about 46 µM. Potency, µM (titrated, usually from 37.8 µM), for the others: at the top dose activity change, negative = inhibition, most hits filed as inhibitors. 300,000 compounds, 1.8% hits; active = well fitted inhibition curve with a large enough effect; inconclusive = small, poorly fitted or top-dose-only effect, or effect the other way; inactive = flat fitted curve, though single readings scatter; tested in HEK293 cells; about a fifth of its hits are not listed in these tables; also: % is scaled to controls: 0 for no effect and ±100 for the full control effect; luciferase read-out
RE007 growth inh – less growth of the S. pombe RE007 Vpr strain; S. pombe RE007 Vpr strain, BacTiter-Glo ATP luminescence, 24 h; control for the full effect not named in the record; Potency, µM (doses to about 92.2 µM), for the others: top-dose activity change, negative = less growth; 360,000 compounds, 0.21% hits; AID 651644; active = well fitted falling curve with a large enough effect; inconclusive = small, poorly fitted or top-dose-only effect; inactive = no such curve, though single readings can be large or run the other way;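 also: % is scaled to controls: 0 for no effect and ±100 for the full control effect; nearly all actives have a fitted effect of over 50% in size; the assay follows cell death caused by Vpr and the record does not say whether a fall means rescue or toxicity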
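Fission yeast RE007 carrying one integrated HIV-1 vpr copy, seeded at OD 0.01 in PMG+AL medium with 23 nL pinned compound. Grown 24 h at 30 degrees; viability read by BacTiter-Glo luminescence after 5 min.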
SARS PLP yeast – SARS-CoV PLP inhibition in yeast; S. cerevisiae expressing SARS-CoV PLpro, growth rescue; control for the full effect not named in the record; 330,000 compounds, 0.19% hits; Potency, µM (highest dose often 32.9 µM), for inactives: top-dose activity, positive = growth rescue; also: 0% is about no effect; nearly all actives have a fitted effect of over 55% in size; growth read by luminescence after 48 h
Cruzain noTriton – inhibitors of Trypanosoma cruzi cruzain without detergent. purified cruzain, Z-FR-AMC fluorescence, no detergent. 200,000 compounds, 2.3% hits. P25779. Potency, µM, without a hit: max response, negative = inhibition, most hits filed as inhibitors; active = well fitted curve in the direction sought with a large enough effect; inconclusive = small, poorly fitted or top-dose-only effect, or another doubt; inactive = no such curve, though single readings can be large; an effect the other way counts as inactive or inconclusive;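 also: plate controls were enzyme without inhibitor for no effect and buffer without enzyme for full effect; nearly all actives have a fitted effect of over 40% in size; top concentration of the series not given in the record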
Target sequence (P25779 123-467 limits assumed): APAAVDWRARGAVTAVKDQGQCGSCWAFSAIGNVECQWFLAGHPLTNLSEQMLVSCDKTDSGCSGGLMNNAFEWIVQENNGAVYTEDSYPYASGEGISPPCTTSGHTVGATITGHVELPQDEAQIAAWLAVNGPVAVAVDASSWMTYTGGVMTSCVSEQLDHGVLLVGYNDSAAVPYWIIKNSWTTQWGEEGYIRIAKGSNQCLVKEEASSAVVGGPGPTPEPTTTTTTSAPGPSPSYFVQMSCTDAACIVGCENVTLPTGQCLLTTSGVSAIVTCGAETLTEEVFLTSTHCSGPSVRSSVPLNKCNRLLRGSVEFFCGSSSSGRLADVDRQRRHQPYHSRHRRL
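Purified cruzain at 1.5 nM, pre-incubated 15 min with compound at room temperature in 100 mM sodium acetate pH 5.5, 5 mM DTT, 0.00005% Triton X-100. Reaction started with 2 uM Z-FR-AMC; AMC fluorescence increase over 60 s gives rate.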
LASV entry inh – blocks Lassa virus binding to or entry into cells | 300,000 compounds, 1.2% hits | Potency, µM (highest dose often 37.9 µM), for the others: at the top dose activity change, negative = inhibition, hits mostly inhibitors | Lassa virus pseudotype entry inhibition, cell reporter; control for the full effect not named in the record; active means well fitted inhibition curve with a large enough effect; inconclusive means small, poorly fitted or top-dose-only effect, or effect the other way; inactive means flat fitted curve, though single readings scatter; tested in HEK293 cells; also: % is scaled to controls: 0 for no effect and ±100 for the full control effect; nearly all actives have a fitted effect of over 50% in size; luciferase read-out
Cruzain Triton – blocks cruzain activity in presence of Triton detergent; P25779; purified cruzain, Z-FR-AMC fluorescence, 0.01% Triton; Potency, µM, inactives show max response, negative = inhibition, most hits filed as inhibitors; 200,000 compounds, 0.43% hits; AID 1478; active = well fitted curve in the direction sought with a large enough effect; inconclusive = small, poorly fitted or top-dose-only effect, or another doubt; inactive = no such curve, though single readings can be large; an effect the other way counts as inactive or inconclusive;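 also: plate controls were neutral wells for no effect and buffer without enzyme for full effect; nearly all actives have a fitted effect of over 40% in size; top concentration of the series not given in the record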
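Cruzain (1.5 nM) preincubated 15 min at RT with compound in 100 mM sodium acetate pH 5.5, 5 mM DTT, 0.01% Triton X-100. Reaction started with 2 uM Z-FR-AMC; AMC fluorescence (ex 360/em 450 nm) change over 60 s gave rate.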
* marks the source's active call; other numbers are inactive results; ? = inconclusive; / = no result given; & = joins results of further samples; [ ] = dose if it differs, or a comment. Unless noted, calls follow the shape of the dose curve; as a rule, active means well fitted rising curve with a large enough effect; inconclusive means small, poorly fitted or top-dose-only effect; inactive means no such curve, though single readings can be large or run the other way. Potency is read from the fitted curve at half-maximal effect.

Values in the order – Cruzain noTriton	LASV entry inh	NS1 function inh	Cruzain Triton	SARS PLP yeast	2A StopGo	RE007 growth inh	Marburg entry inh
> CCOC(=O)[C@@H]1[C@H]2COc3ccccc3[C@@H]2N2C(=O)N(c3ccc(OC)cc3)C(=O)[C@@]12C
 : /	/	-3%	/	4%	0%	-8%	/
> COc1ccc(/C=N/n2c(C)cc(C)c(C(N)=O)c2=O)cc1
 : 0%	-1%	1%	-1.6%	4%	/	-14%	22%
> O=c1c2ccccc2sc2c(CO)ccc(NCCN3CCCCC3)c12
 : -8%	?	3%	-3.1%	/	?	-12%	?
> Cn1cc(Br)cc2nc(C(F)(F)F)nc1-2
 : -4%	7%	1%	0.9%	1%	-8%	2%	3%&3%
> Cc1ccc(OCCCc2c(C)n[nH]c2C)cc1
 : /	-9%[46.1 µM]	/	/	?	-11%	15%	?
> Cc1ccc(-c2cccc(-c3cc(=O)oc4ccc(C(C)(C)C)cc34)c2)cc1
 : ?	/	/	-1.5%	-11%	0%	-8%	/
> O=C(c1ccco1)N1CCC(c2nc3c(nnn3Cc3ccc(F)cc3)c(=O)[nH]2)CC1
 : /	?	2%	/	8%	0%	-12%	-1%[46.1 µM]
> Cn1c2c(c(=O)n(C)c1=O)C(c1ccccc1C(F)(F)F)CC(=O)N2 (stereo unspecified)
 : 8%	-3%[46.1 µM]	/	-1.1%	/	-20%	/	5%[46.1 µM]
> CCOc1ccccc1N1CCN(C(=O)c2ccncc2)CC1
 : 0%	15%	8%	1.1%	1%	/	12%	19%
> O=C(Nc1c(Cl)cccc1Cl)C1CCN(C(=O)c2cccs2)CC1
 : /	?	1%	/	2%	-15%	1%	3%[46.1 µM]
> Cc1nn(C)c(C(=O)NC(=S)Nc2ccccc2Br)c1Cl
 : /	/	-1%	/	-5%	24%	-7%	/
> O=c1cc(-c2ccccc2)[nH]n1-c1nc2ccccc2s1
 : ?	9%	-58%	-21%	-3%	0%	-5%	?
> Cn1c(SCC(=O)Nc2ccccc2F)nnc1-c1ccc(S(=O)(=O)N2CCOCC2)cc1
 : 0%	-18%	-10%	0.4%	-3%	-6%	10%	?
> CCN(CC(=O)Nc1ccc2c(c1)OCCO2)C(=O)C(C)Oc1ccc(Cl)cc1 (stereo unspecified)
 : /	1%	/	/	2%	17%	-1%	-8%[46.1 µM]
> Nc1nc(SCC(=O)c2ccc([N+](=O)[O-])cc2)n[nH]1
 : /	/	13%	/	-2%	-6%	4%	/
> C#Cc1ccc([C@@H]2C=C(C(=O)OCC=C)O[C@H](OCCCCO)C2)cc1
 : /	/	-2%	/	-2%	-14%	9%	/
> CCn1c(C(=O)N2CCCC(C(=O)N3CCN(c4cc(C)ccc4C)CC3)C2)cc2sccc21 (stereo unspecified)
 : ?	/	/	-8.3%	/	?	/	0%[46.1 µM]
> CCO[C@@H]1OC(C(=O)NCc2ccccc2)=C[C@H](c2cn(C(C)=O)c3ccccc23)[C@H]1CCCO
 : /	/	5%	/	-1%	-5%	-6%	/
> COc1cc2ccccc2cc1C(=O)NCc1ccncc1
 : /	/	17%	/	-6%	12%	-3%	/
> COc1ccc(NC(=S)NCCc2c[nH]c3ccc(OC)cc23)c(OC)c1
 : 0%	-27%	?	-7.8%	0%	/	0%	-19%

Reprinted from the part before: 3 compounds; new compounds follow.
Values in the order – Cruzain noTriton	LASV entry inh	NS1 function inh	Cruzain Triton	SARS PLP yeast	2A StopGo	RE007 growth inh	Marburg entry inh
> CCO[C@@H]1OC(C(=O)NCc2ccccc2)=C[C@H](c2cn(C(C)=O)c3ccccc23)[C@H]1CCCO
 : /	/	5%	/	-1%	-5%	-6%	/
> COc1cc2ccccc2cc1C(=O)NCc1ccncc1
 : /	/	17%	/	-6%	12%	-3%	/
> COc1ccc(NC(=S)NCCc2c[nH]c3ccc(OC)cc23)c(OC)c1
 : 0%	-27%	?	-7.8%	0%	/	0%	-19%
> Cc1ccc(CCNC(=O)CCS(=O)(=O)c2ccc3c(c2)oc(=O)n3C)cc1
 : 28%	12%[46.1 µM]	-16%	-0.1%	-4%	-7%&-20%	4%	/
> Cc1ccc(-c2nc(N/N=C/c3ccncc3)c3ccccc3n2)cc1
 : -4%	?	3%	?	12%	1µM*	?	2.9µM*
> O=C(c1ccc(CS(=O)(=O)c2cccc(C(F)(F)F)c2)o1)N1CCN(c2ccccn2)CC1
 : 7%	-9%	1%	-0.4%	-5%	-1%	-25%	-2%&-22%
> CCn1c(CNc2ccc(F)cc2)nnc1SCC(=O)Nc1ccccc1OC
 : 18%	18%	6%[9.22 µM]	-1.6%	-11%	-7%	2%	-4%
> O=C(NCc1ccccc1F)C1CCCN1C(=O)Nc1ccc(F)cc1 (stereo unspecified)
 : /	/	0%	/	1%	-4%	3%	/
> CC(C)CCNC(=O)c1cc([N+](=O)[O-])ccc1N1CCOCC1
 : 0%	14%	8%	-6.6%	26%	-16%	-3%	?
> CN1CCN(C(=O)C2CCCN(S(=O)(=O)c3ccccc3)C2)CC1 (stereo unspecified)
 : /	-4%[46.1 µM]	3%	/	?	2%	-1%	1%[46.1 µM]
> CN(C(=O)COC(=O)CCc1c[nH]c2ccccc12)c1ccccc1
 : /	1%	/	/	1%	10%	34%	-3%
> COc1ccccc1NC(=O)N(Cc1ccco1)Cc1cc2ccc(C)c(C)c2[nH]c1=O
 : -19%	?	3%	-4.6%	7%	?	11%	?
> COc1ccccc1Nc1nn2c(=O)c3ccc(C(=O)NCCc4ccccc4)cc3nc2s1
 : -20%	?	/	-2.8%	/	?	/	/
> N#CC(Cc1ccc(O)c(O)c1)C(=O)N1CCc2ccccc21 (stereo unspecified)
 : -8%	/	3%	-9.7%	/	/	/	?
> Oc1c(CN2CCOCC2)cc(CN2CCOCC2)cc1CN1CCOCC1
 : /	4%[46.1 µM]	/	/	/	-1%	-2%	-7%
> CCOC(=O)NCc1ccc(S(=O)(=O)Nc2c(C)cccc2C)cc1
 : -1%	3%	4%	-1.7%	7%	-18%	-3%	-1%
> CCOC(=O)c1c(NC(=O)COC(=O)CCS(=O)(=O)c2ccc(C)cc2)sc(C)c1C
 : 13%	?	-1%	-8.4%	8%	0%	-19%	?
> COc1cc(-c2[nH]ncc2CN(C)Cc2nonc2C)cc(OC)c1OC
 : /	/	5%	/	-1%	?	5%	/
> O=C(CCc1[nH]c2ccccc2c1Sc1ccccc1)N(CCO)CCO
 : ?	-15%	-13%	-0.9%	2%	9%	-2%	3%
> COc1ccc(NC(=O)Cc2c(Sc3ccccc3)c3ccccc3n2C)cc1
 : ?	3%	19%	1.2%	4%	2%	13%	1%
> CC(NS(=O)(=O)c1ccc(Cl)cc1)C(=O)N1CCOCC1 (stereo unspecified)
 : /	-1%	12%	/	-1%	-1%	13%	2%[46.1 µM]
> COc1cc(/C=N/n2c(COc3ccccc3)n[nH]c2=S)cc(Br)c1O
 : /	-1%	7%	/	2%	-8%	8%	4%
> Cc1ccc(C(=O)Oc2ccc3ccc(=O)oc3c2)cc1
 : /	/	-1%	/	0%	12%	-8%	/

Values in the order – Cruzain noTriton	LASV entry inh	NS1 function inh	Cruzain Triton	SARS PLP yeast	2A StopGo	RE007 growth inh	Marburg entry inh
> Cc1cccnc1N(C(=O)Nc1ccccc1)C1=NCC(C)(C)S1
 : -4%	-15%	-34%	3.8%	2%	11%	-18%	-8%
> COc1cc(C(=O)NCC2(N3CCCCC3)CCCCC2)ccc1OCC(=O)N1CCOCC1
 : /	/	1%	/	0%	-17%	-8%	/
> O=C(Oc1ccc(OC(=O)N2CCOCC2)cc1)c1ccccc1
 : -5%	18%	2%	-8.3%	2%	-3%	13%	15%[46.1 µM]
> O=C(NC(=S)N1CCN(C(c2ccccc2)c2ccccc2)CC1)c1ccc(S(=O)(=O)N2CCOCC2)cc1
 : -9%	-25%	24%	-1.2%	23%	-18%	1%	-10%
> Cc1cc(C)nc(SCc2nnc(SCC(=O)N3CCOCC3)o2)n1
 : -9%	?	1%	2.0%	-1%	-10%	4%	?
> CCC1(CC)Cc2ccccc2-c2nc3ccccc3c(=O)n21
 : 5%	-4%	-27%	-0.5%	-21%	?	-25%	-15%[46.1 µM]
> CC1=C(C(=O)OCc2ccccc2)C(c2ccoc2)C(C#N)=C(N)O1 (stereo unspecified)
 : 0%	-14%	1%	-13%	4%	3%	5%	-18%
> COc1cc2ccccc2cc1C(=O)Nc1nccs1
 : /	/	-52%	/	-12%	8%	-11%	/
> Cc1cc(C)cc(NC(=S)N(CCCN2CCN(C)CC2)Cc2cccs2)c1
 : /	-6%	/	/	-6%	18%	12%	11%[46.1 µM]
> CCOC(=O)c1cnn(C(=O)c2ccccc2)c1N
 : -16%	24%	32%	-1.0%	14%	57%[activator]	-12%	-3%
> COc1ccc(-n2c(=O)c3ccccc3n(CC(=O)NC3CCCCC3)c2=O)cc1OC
 : /	-3%	/	/	4%	-23%	-23%	12%[46.1 µM]
> COc1ccccc1CNC(=O)C1CCC(=O)N(CCCc2ccccc2)C1 (stereo unspecified)
 : /	/	-1%	/	-3%	14%	13%	/
> Cc1ccc(OCC(=O)NCCNC(=O)c2cnccn2)cc1C
 : /	23%[46.1 µM]	3%	/	17%	6%	9%	?
> Cc1ccsc1C(=O)N1CCCC(CO)(Cc2ccccc2F)C1 (stereo unspecified)
 : /	-4%	3%	/	?	4%	-3%	-5%[46.1 µM]
> CC(=O)c1cc(C#N)c(SCc2ccccn2)nc1C
 : /	7%	1%	/	-1%	23%	0%	?
> CCn1c(SC)nc2c([nH]c3ccccc32)c1=O
 : 1%	-4%[46.1 µM]	/	0.5%	/	-3%	/	/
> COc1ccc(NC(=O)C2CC3CCC2C3)c(OC)c1 (stereo unspecified)
 : /	1%[46.1 µM]	/	/	/	-3%	10%	13%[46.1 µM]
> Cc1nnc(NC(=O)CCNC(=O)c2ccccc2Cl)s1
 : /	13%	/	/	-1%	13%	-11%	3%[46.1 µM]
